# CDC25B CDK2 inh: human CDC25B-CDK2/CyclinA binding inhibition | z-score (test concentration not listed) | AID 1259370 | HTRF CDC25B-CDK2/CyclinA binding, anti-His/anti-Flag; hits give high values | 94,000 compounds, 0.72% hits;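 further: score is relative to mean and SD of negative controls; strong numbers were not always called active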
# TAR Tat displ: HIV-1 TAR-Tat binding disruption; HIV-1 TAR RNA, Tat peptide displacement FRET; hits give high values; z-score (no concentration beside the values); 100,000 compounds, 0.6% hits;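 further: score is relative to mean and SD of negative controls; some compounds called inactive have numbers as strong as hits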
# * marks the source's active call; other numbers are inactive results; . = not tested or not shown.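 How the source made its calls: active means z-score from 3 up in half or more of its runs; inactive means the rest.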 Compounds were not picked by outcome; 0.9% or so of the library scored in one or more.
SMILES,CDC25B CDK2 inh,TAR Tat displ
O=C1CC(c2ccc(F)cc2)Sc2nc(-c3ccc(Cl)cc3)nn21 (configuration not stated),1.2,.
Cc1c(C(=O)N2CCCCC2C)sc2nc3n(c(=O)c12)CCC3 (configuration not stated),.,0.95
CCOC(=O)c1cc(S(=O)(=O)Nc2ccc(F)c(Cl)c2)[nH]n1,.,1.4
N#Cc1cnn(-c2ccccc2)c1NC(=O)CN1CCCCC1,-1.1,.
CN1C(=O)C/C(=N\O)N(C)C1=O,-1.1,.
CCCN1CCN(S(=O)(=O)c2c(C)[nH]c(C)c2C(=O)N2CCCCC2)CC1,.,-0.26
O=C(Nc1noc2c1COc1ccccc1-2)N1CCC(Cc2ccccc2)CC1,.,1.8
O=C(Cn1c2ccccc2c2cn[nH]c(=O)c21)NCC1CCCO1 (configuration not stated),-1.4,.
O=C(Nc1ccc(F)cc1F)c1cc2c(s1)-c1ccccc1S(=O)(=O)C2,0.81,1
Cc1ccc(NC(c2cccnc2)c2ccc3cccnc3c2O)cc1C (configuration not stated),-0.83,0.03
Cc1nnc(NC(=O)CSc2nnc(Cc3c(C)nc4c(C)cccn4c3=O)n2C)s1,-0.77,0.42
N/C(=N/S(=O)(=O)c1cc(C(F)(F)F)cc(C(F)(F)F)c1)c1ccc(Cl)cc1,-0.14,.
COc1cc(C2NC(=O)NC(O)(C(F)(F)F)C2C(=O)c2ccc(C)cc2)ccc1O (configuration not stated),-2.4,.
Cn1c(=O)c2c([nH]c(=S)n2Cc2cc3c(cc2Cl)OCO3)n(C)c1=O,-3.6,.
NC(=O)c1c(NC(=O)CSc2nc3c(c(=O)[nH]2)CCCC3)sc2c1CCCC2,0.19,-0.09
C=C(C)Cn1c(CN2CCOCC2)nc2c1c(=O)n(C)c(=O)n2C,-1.9,-0.99
Cc1csc(NC(=O)c2nc3cc(C)c(C)cc3nc2OC(C)C)n1,.,0.46
CCOc1ccccc1Nc1nn2nnnc2c2ccccc12,.,-5.9
Cn1c(=O)c2c(-c3c(F)cccc3Cl)c(Nc3ccccc3)oc2n(C)c1=O,.,2.2
CCc1nn(CC(=O)NCCOC)c(=O)c2cc3sccc3n12,-1.1,-0.8

# Some of the entries so far, with tabs:
Structure	CDC25B CDK2 inh	TAR Tat displ
NC(=O)c1c(NC(=O)CSc2nc3c(c(=O)[nH]2)CCCC3)sc2c1CCCC2	0.19	-0.09
CCCN1CCN(S(=O)(=O)c2c(C)[nH]c(C)c2C(=O)N2CCCCC2)CC1	.	-0.26

# (next part)
SMILES,CDC25B CDK2 inh,TAR Tat displ
O=C(CSc1nc2ncccc2[nH]1)Nc1nccs1,-0.24,2.4
O=C(Oc1ccc(-n2cnnn2)cc1)c1ccc(F)cc1,-1.3,-1.1
O=C(NC1CCCC1)C1=Cc2cc(Br)ccc2OC=C1,-1,-0.59
Cc1cc(C)cc(Nc2c3c(nc4ncnn24)CCC3)c1,.,0.79
O=S(=O)(NCC1CCN(S(=O)(=O)c2ccccc2)CC1)c1cccs1,-2.6,.
CN(C)S(=O)(=O)c1ccc2nc(NC(=O)c3sc4ccccc4c3Cl)sc2c1,.,1.5
C=CCNc1nc(NCc2ccccc2Cl)c2cnn(C)c2n1,.,2.9
Cn1cc(-c2ccccc2C(N)=O)c(=O)c2ccccc21,0,.
O=c1cc(CSc2nnc(-c3ccccc3F)o2)nc2sc3c(n12)CCCC3,-1.1,0.17
O=C(Cn1c(=Nc2ccc(F)cc2)oc2ccccc2c1=O)c1ccccc1,-0.73,.
COc1ccc(NCC2=NNC(=O)c3ccccc3O2)cc1,1.8,0.77
O=C1N(Cc2ccccc2)C2CS(=O)(=O)CC2N1c1ccccc1 (configuration not stated),.,-0.1
CC1(C)OC(=O)C(=NNc2cc(C(F)(F)F)cc(C(F)(F)F)c2)C(=O)O1,-1.9,.
Cc1nc2sc(C(c3cccc(Cl)c3)N3CCN(C)CC3)c(O)n2n1 (configuration not stated),-1.2,.
CCC1Sc2ccc(S(=O)(=O)CCC(=O)N3CCC(C)CC3)cc2NC1=O (configuration not stated),.,0.24
O=[N+]([O-])c1c(N2CCOCC2)ccc2nsnc12,0.92,.
Cc1nc2ccccc2n1C/C=C/c1ccccc1,0.11,-0.11
CN1C(=O)N(C)C2(c3ccccc3)N(C)C(=O)NC12c1ccccc1 (configuration not stated),-1.3,.
Cc1ccccc1-n1nnc(-c2nc(-c3ccc(Br)cc3)no2)c1N,.,0.7
Cc1ccc2c(c1)c(-c1ccccc1)nc1nnnn12,-0.39,.
CCOC(=O)C1CCN(c2c(N3CCN(CC)CC3)c(=O)c2=O)CC1,-1.8,0.58
Cc1ccc2oc(SCC(=O)Nc3ccc(S(=O)(=O)N4CCCC4)cc3)nc2n1,.,-0.08
Cc1ccc(S(=O)(=O)N(C)c2c(C)ccc(S(=O)(=O)n3nc(C)cc3C)c2C)cc1,0.1,0.44
CC(C)Cc1nnc(NC(=O)CCN2C(=O)/C(=C/c3ccc4c(c3)OCO4)SC2=S)s1,-2.2,.
CCCOc1ccc(S(=O)(=O)NCc2ccc3c(c2)OCO3)cc1,-0.75,.
O=C1COc2cc(S(=O)(=O)CCC(=O)N3CCN(C4CCCCC4)CC3)c(Cl)cc2N1,.,3.8
COc1ccc(N(C(=O)c2ccc3c(c2)OCO3)C2C=CS(=O)(=O)C2)c(OC)c1 (configuration not stated),-1.1,.
O=C(CSc1oc(-c2ccco2)nc1S(=O)(=O)c1ccc(Cl)cc1)NC1CCCCC1,-2.8,-3.4
COc1ccccc1OCCn1c(CN2CCCCC2)nc2ccccc21,-0.13,0.67
CC1CCN(c2nn3c(=O)c(C(=O)N4CCN(c5ccccc5F)CC4)cnc3s2)CC1,.,-2.1
COc1ccc(-c2cc(C(=O)OCC(=O)c3ccc(C)c([N+](=O)[O-])c3)c3cccc(C)c3n2)cc1,-2.4,.
Cc1cccc(CCNc2nc3ccc(C)cc3n3cnnc23)c1,-0.82,-0.06
NNC(=O)c1csc(-c2cccc(-n3cccc3)c2)n1,17*,.
Cc1c(C(=O)NC2CCCCCC2)sc2ncn(CC(=O)N3CCC(C)CC3)c(=O)c12,-3,.
CO/N=C(\C(=O)N[C@@H]1C(=O)N2C(C(=O)O)=C(COC(C)=O)CS[C@H]12)c1csc(N)n1 (stereo in doubt),-1.7,.
CCOC(=O)C1CCCN(C(=O)C2CCN(c3ccc(-c4cccs4)nn3)CC2)C1 (configuration not stated),.,1.6
COc1ccc(-c2cc3ncc(-c4ccc(OC)c(OC)c4)c(N)n3n2)cc1,-3.3,-0.26
COC(=O)c1cc2sc(C)cc2n1Cc1cn2ccccc2n1,-2.2,-0.43
COc1ccc(CCNS(=O)(=O)c2ccc3c(c2)oc(=O)n3C)cc1OC,-0.72,-0.56
Cc1oc2ncnc(N3CCOCC3)c2c1C(=O)NC1CCCCC1,.,0.02
Cc1ccc(N2CC(=O)N(N)CC2=O)cc1,-1,.
CS(=O)(=O)c1ncc(Cl)c(C(=O)Nc2cccc(Cl)c2)n1,-1.4,2.1
CCOC(=O)C1CCN(C(=O)Cn2cc3c(n2)CCCC3)CC1,-1.1,.
Cc1cc(C)c2c(=O)cc(C(=O)NCC(c3ccc(C)o3)N3CCC(C)CC3)oc2c1 (configuration not stated),-1.1,0.76
Cc1ccc(C(=O)Cn2nc(-c3ccc(C)c(S(=O)(=O)N4CCCC4)c3)ccc2=O)cc1,1.4,-0.52
COc1ccc(Nc2cc(Nc3ccccc3)ncn2)cc1,-1.8,2
O=C(NCc1ccco1)Nc1nc2c(s1)CCCC2,.,0.08
O=C(C1CCCN1S(=O)(=O)c1cccc2cccnc12)N1CCN(c2ccc(F)cc2)CC1 (configuration not stated),-0.95,0.8
Cc1ccc(N2C(=O)C3N=NN(Cc4ccccc4F)C3C2=O)cc1C (configuration not stated),1.2,-0.38
COc1ccc(/C=C/c2nc(C#N)c(N3CCN(C(=O)c4ccco4)CC3)o2)cc1OC,0.75,0.23
C=CCN(c1ccccc1)S(=O)(=O)c1ccc2c(c1)NC(=O)CO2,.,0.98
CCc1ccnc(NS(=O)(=O)c2ccc3c(c2)CCO3)c1,-0.55,.
Cn1cc(-c2cc3n(n2)CCC(=O)N3CC(=O)NCCc2c[nH]c3ccccc23)c2ccccc21,.,0.66
O=C1NC(c2ccc(OCc3ccccc3)cc2)Nc2sc3c(c21)CCCC3 (configuration not stated),-1.4,0.9
O=C(Cn1nnnc1-c1ccccc1F)NCC1Cc2ccccc2O1 (configuration not stated),-2.2,-0.78
COC(=O)c1c(NC(=O)c2cc(-c3ccc4c(c3)CC(C)O4)on2)sc2c1CCCC2 (configuration not stated),-0.83,1.8
O=C(Cn1ccc2ccccc2c1=O)NCCC(=O)Nc1ccccn1,-1.6,.
Cc1onc(C(=O)NC(C)C)c1[N+](=O)[O-],-0.95,-2
CN1CCN(c2nc(NCc3ccco3)nc(N)c2[N+](=O)[O-])CC1,.,0.98
Cc1ccc2c(c1)N(S(=O)(=O)c1cc(-c3cc(C)no3)ccc1C(C)C)CCO2,.,1.8

# Looked up by compound from the list above, 6 records:
SMILES,CDC25B CDK2 inh,TAR Tat displ
Cc1ccc2c(c1)N(S(=O)(=O)c1cc(-c3cc(C)no3)ccc1C(C)C)CCO2,.,1.8
O=C(Cn1nnnc1-c1ccccc1F)NCC1Cc2ccccc2O1 (configuration not stated),-2.2,-0.78
O=C(C1CCCN1S(=O)(=O)c1cccc2cccnc12)N1CCN(c2ccc(F)cc2)CC1 (configuration not stated),-0.95,0.8
C=CCN(c1ccccc1)S(=O)(=O)c1ccc2c(c1)NC(=O)CO2,.,0.98
CCc1ccnc(NS(=O)(=O)c2ccc3c(c2)CCO3)c1,-0.55,.
Cc1onc(C(=O)NC(C)C)c1[N+](=O)[O-],-0.95,-2

# Three entries from above, with values under each structure.
# Results follow in this order: CDC25B CDK2 inh | TAR Tat displ
Cc1ccc(N2CC(=O)N(N)CC2=O)cc1
  -1 | .
CCOC(=O)C1CCN(C(=O)Cn2cc3c(n2)CCCC3)CC1
  -1.1 | .
Cc1ccc(N2C(=O)C3N=NN(Cc4ccccc4F)C3C2=O)cc1C (configuration not stated)
  1.2 | -0.38

# Other records:
SMILES,CDC25B CDK2 inh,TAR Tat displ
O=C(NCc1ccco1)c1ccc(CNc2c(N3CCCCC3)c(=O)c2=O)cc1,-1.2,.
COc1ccc(C(=O)Oc2cccc3cccnc23)cc1Cl,-0.35,-0.52
O=C(CCc1nc(CSc2nc3cc(Cl)ccc3o2)no1)Nc1ccccc1F,.,-0.87
COc1ccc2c(c1OC)C(=O)OC2Nc1ccc(S(N)(=O)=O)cc1 (configuration not stated),-0.59,1.6
Cc1ccc(NC(=O)Nc2c(C)[nH]c(=O)[nH]c2=O)cc1F,-3,1.1
CCOc1ccc(C2c3c(-c4c(C)cc(C)cc4O)n[nH]c3C(=O)N2Cc2ccco2)cc1OCC (configuration not stated),0.86,0.22
O=C(O)c1ccc2c(c1)sc1nc(-c3ccc(F)cc3)cn12,-4.6,2.6
COCCCNC(=O)CCc1nnc2ccc(N3CCCCC3)nn12,.,0.99
CCc1nn2c(=O)cc(COC(=O)COc3ccccc3C)nc2s1,.,0.68
Cc1nc([N+](=O)[O-])c2n(-c3ccc(F)cc3)c(-c3ccccc3)cn12,1.1,-0.62
CCCc1c(C(=O)OCC)nnc2c(-c3ccc(F)cc3)c(C)nn12,-0.59,1.2
COCCNC(=O)c1cc2c(n(-c3ccccc3)c1=O)CCCC2=O,-1.1,.
CCCc1nnc(NC(=O)c2nn(-c3ccc(CC)cc3)ccc2=O)s1,-1,1.1
Cc1cc(C)cc(NC(=O)CC(C)S(=O)(=O)c2ccc3c(c2)CCN3C(=O)C2CC2)c1 (configuration not stated),.,0.03
COCCNc1nc2ccccc2n2nnnc12,-0.68,0.22
COc1cccc(C2CC(=O)C3=C(C2)NC(C)=C(C(=O)OCCOC(C)C)C3c2ccc(C)s2)c1 (configuration not stated),-0.09,0.34

# 3 compounds out of the list, arranged by length of the SMILES, smallest number first.
SMILES,CDC25B CDK2 inh,TAR Tat displ
Cc1ccc(NC(c2cccnc2)c2ccc3cccnc3c2O)cc1C (configuration not stated),-0.83,0.03
O=S(=O)(NCC1CCN(S(=O)(=O)c2ccccc2)CC1)c1cccs1,-2.6,.
Cc1cc(C)cc(NC(=O)CC(C)S(=O)(=O)c2ccc3c(c2)CCN3C(=O)C2CC2)c1 (configuration not stated),.,0.03

# Screens deposited in PubChem BioAssay by Center for Chemical Genomics, University of Michigan.
